Assay outcomes from PubChem BioAssay.
CtBP-E1A inh: qHTS Assay for Inhibitors of the CtBP/E1A Interaction. CtBP / adenovirus E1A interaction (AlphaScreen). AlphaScreen GST-E1A/His-CtBP binding, 1536-well; hits give low values; control for the full effect not named in the record. activity change, % (concentration not given with the values). 340,000 tested, 0.49% active. AID 651724, 2012; in the data active means activity change below about -65%; inconclusive means about -30% to -65%; inactive means above about -30%; also: % is scaled to controls: 0 for no effect and ±100 for the full control effect
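AlphaScreen with 125 nM GST-E1A and 125 nM His-CtBP (5X stocks) in Tris pH 8.0, 300 mM NaCl, BSA, Tween 20, TCEP. Compounds preincubated 2 h at 37 deg C, then glutathione donor/nickel acceptor beads added for 1 h at 37 deg C in dark.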
ClpP mod: qHTS Assay for Activators of ClpP. purified B. subtilis ClpP, FRET peptide cleavage, 20 min. Potency, µM (series often up to 57.5 µM), for inactives: at the highest dose activity change, negative = active. 340,000 tested, 1.9% active. AID 651965, 2013; active = well fitted falling curve with a large enough effect; inconclusive = small, poorly fitted or top-dose-only effect; inactive = no such curve, though single readings can be large or run the other way; also: potency is read from the fitted curve at half-maximal effect; the source files actives as falling curves though it sought activators and does not explain the sign; nearly all actives have a fitted effect of over 65% in size; many hits overshoot -100%
Target sequence (P80244 whole entry, looked up): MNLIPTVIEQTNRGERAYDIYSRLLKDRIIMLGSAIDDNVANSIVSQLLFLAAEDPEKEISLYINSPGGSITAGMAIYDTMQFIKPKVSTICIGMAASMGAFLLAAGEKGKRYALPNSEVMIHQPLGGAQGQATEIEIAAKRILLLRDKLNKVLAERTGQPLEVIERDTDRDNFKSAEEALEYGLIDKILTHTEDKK
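FRET quenching reversal measured ClpP activation: 10 microg/mL B. subtilis ClpP at pH 8 with the FRET-FV decapeptide, read at 430 nm after 320 nm excitation. The 20-min minus 0-min signal was scaled between DMSO/no-enzyme wells and ADEP (5.8 microM final).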
Active calls of the source: *; u = inconclusive; & = joins results of further samples. Not all compounds are listed; count on the stated rates, not on these rows.

SMILES	CtBP-E1A inh	ClpP mod
O=C(Nc1ccn(C2CCC(CO)O2)c(=O)n1)c1ccccc1 (stereo unspecified)	4	1.0%
CCC(=O)N1CCC(C)(C(=O)Nc2ccc(OC)c(OC)c2)C1 (stereo unspecified)	7	0.9%
CC(=O)Nc1cccc(-c2ccnc3c2CC(C)(C(=O)Nc2ccccc2)O3)c1 (stereo unspecified)	-7	-22%
CC(C)NC(=O)C1(C)CN(S(C)(=O)=O)CC(=O)N1Cc1cccc(F)c1 (stereo unspecified)	-1	-1.0%
COCCNC(=O)C1CCCN(Cc2ccc(C(C)C)cc2)CC1 (stereo unspecified)	4	-2.1%
CC(C)C[C@@H](CN1CCC[C@H]1CN1C(=O)C(=O)NC[C@@H]1Cc1ccccc1)N1C[C@H](Cc2ccccc2)N(CC2CCCCCC2)C(=O)C1=O	4	1.5%
O=C(Nc1ccc(F)c(Cl)c1)c1cc(C2CCCCN2C(=O)c2ccc3c(c2)CCO3)on1 (stereo unspecified)	-7	-10%
Cc1ccc(-c2nc3cc(C)c(Br)c(C)n3c2CC2CCCCC2)cc1	2	-1.2%
CC(C)NC(=O)C1(C)CCN1CCC(=O)c1ccccc1 (stereo unspecified)	4	-0.6%
CCOC(=O)c1noc2c1CCC2	-4	-1.3%
CCCN(CC1CC1)c1cc2c(c3c1ccn3C)C1CCC2C1 (stereo unspecified)	u	-23%
CCOC(=O)C1=CCC(c2ccc(C)cc2)N(S(=O)(=O)c2ccc(C)cc2)C1 (stereo unspecified)	-11	-5.5%
CC(=O)Nc1cccc(-c2ccnc3c2CC(C(=O)NCc2ccco2)O3)c1 (stereo unspecified)	1	-21%
CC(C)(C(=O)N1CCC1(C)C(=O)NS(=O)(=O)c1ccc(C#N)cc1)c1ccccc1 (stereo unspecified)	11	-3.6%
CCOC(=O)[C@]12CCC=C1N(Cc1cccc3ccccc13)C(=O)[C@H](CC(=O)N1CCOCC1)C2	-1	0.8%
COCCN1C(=O)COc2ccccc2C1C(=O)NC1CCCC1 (stereo unspecified)	6	0.4%
CC1(C(=O)Nc2cccc3ncccc23)CCN1C(=O)CCc1ccccc1 (stereo unspecified)	-13	-25%
CCC(C(=O)NC1CCCC1)n1c(-c2ccncc2)nc2ccccc21 (stereo unspecified)	3	-24%
COC(=O)[C@]12CCCCC=C1N(CCC1=CCCCC1)C(=O)[C@H](CC(=O)NCCc1ccccc1OC)C2	-5	0.2%
Cc1ccc(Cc2c(C3CCCCC3)nc3ccc(Br)cn23)cc1	0	-7.1%
CC1=C(C(=O)N2CCCCCC2)CC(CC(=O)NC2CC2)C(=O)N1Cc1ccccc1 (stereo unspecified)	9	1.0%
O=C(Nc1ccncc1)c1cc(C2CCCCN2C(=O)CCc2ccccc2)on1 (stereo unspecified)	-13	-5.4%
NC(=O)c1cccc(-c2ccnc3c2CC(C(=O)NCc2ccco2)O3)c1 (stereo unspecified)	1	-3.5%
O=C(NCc1ccccc1)C(c1ccc(-c2ccccc2)cc1)N1CCN(c2ccccc2F)CC1 (stereo unspecified)	-2	-8.6%
COc1ccc(CNC(=O)c2ccc(-c3ccc(F)c(F)c3)c3ccoc23)cc1OC	-10	u

Overlap with the part before: 6 compounds, followed by the next part.
SMILES	CtBP-E1A inh	ClpP mod
Cc1ccc(Cc2c(C3CCCCC3)nc3ccc(Br)cn23)cc1	0	-7.1%
CC1=C(C(=O)N2CCCCCC2)CC(CC(=O)NC2CC2)C(=O)N1Cc1ccccc1 (stereo unspecified)	9	1.0%
O=C(Nc1ccncc1)c1cc(C2CCCCN2C(=O)CCc2ccccc2)on1 (stereo unspecified)	-13	-5.4%
NC(=O)c1cccc(-c2ccnc3c2CC(C(=O)NCc2ccco2)O3)c1 (stereo unspecified)	1	-3.5%
O=C(NCc1ccccc1)C(c1ccc(-c2ccccc2)cc1)N1CCN(c2ccccc2F)CC1 (stereo unspecified)	-2	-8.6%
COc1ccc(CNC(=O)c2ccc(-c3ccc(F)c(F)c3)c3ccoc23)cc1OC	-10	u
Cc1cc(C)c2c(CN3CCN(c4ccccc4)CC3)cc(=O)oc2c1	6	-1.4%
O=C1c2ccccc2C(c2nnnn2Cc2ccccc2)N1Cc1cccc(F)c1 (stereo unspecified)	9&6	-0.4%&2.6%
O=C(/C=C1\OCc2ccccc21)c1ccccc1	4	-0.7%
CC1(C(=O)NS(=O)(=O)c2cccc(C#N)c2)CCN1C(=O)C1(c2ccc(Cl)cc2)CCC1 (stereo unspecified)	-22	-1.1%
Cn1cc(-c2coc3c(C(=O)NCc4cccnc4)cccc23)cn1	-9	-4.4%
CC1(Cc2ccccc2OC(F)(F)F)C(=O)Nc2ccc(OC(F)(F)F)cc21 (stereo unspecified)	0	-0.7%
CC(O)(c1cccc(F)c1)c1nc(-c2cccc(C(=O)O)c2)cs1 (stereo unspecified)	3	-3.1%
CCCNC(=O)C1(C)CCCN(C(=O)c2cc(C(C)(C)C)nn2C)C1 (stereo unspecified)	4	0.1%
O=C(Nc1cccs1)Nc1nnc([C@@H]2C[C@H](O)[C@@H](CO)O2)s1	-4	-1.9%
Oc1ccc(C[C@H]2CNC(=S)N2CC2CCCN2C[C@H](Cc2ccccc2)N2C[C@H](Cc3ccc(O)cc3)N(CC3CCCCC3)C2=S)cc1 (stereo partly specified)	-9	-0.7%
COc1ccc(C(C)(O)c2nc(-c3csc4ccccc34)cs2)cc1 (stereo unspecified)	0	1.4%
Cc1cccc(-c2cnc(C(O)c3ccc(-c4ccccc4)cc3)[nH]2)c1 (stereo unspecified)	-14	-4.6%
COc1cc(CN2C(=O)C(C)ON=C2c2ccccc2F)cc(OC)c1 (stereo unspecified)	0	1.5%
COc1ccc(C(NC(=O)C2CCN(CCOc3ccc(F)cc3)CC2)c2cccs2)cc1 (stereo unspecified)	-17	-4.5%
C#Cc1ccccc1OCCCN1CCC(C(O)(c2ccccc2)c2ccccc2)CC1	-5	2.9%
CC(=O)C1=CCC(c2ccccc2)N(S(=O)(=O)c2ccccc2)C1 (stereo unspecified)	0&6	-1.8%&-1.2%
CC(=O)c1ccc(-c2cnc3c(NC=O)cc(-c4cccc(C(=O)N(C)C)c4)cn23)cc1	-16	-17%
CCOC(=O)[C@]12CCC=C1N(Cc1ccco1)C(=O)[C@H](CC(=O)NCc1cccc3ccccc13)C2	0	-0.4%
COC[C@H]1CCCN1[C@H]1CS(=O)(=O)N[C@@H]1COCc1ccccc1	3	-1.6%
CC(C)(C)c1ccc(C(=O)N2[C@H](COCc3ccccc3)C=CS2(=O)=O)cc1	-11	-2.7%
CCCCn1nnnc1C1(C)CCC(=O)N1C1CC1 (stereo unspecified)	9	-0.5%
Cc1cc2nc(-c3ccccc3Br)n(/C=C(\c3ccccc3)n3c(=O)[nH]c4ccccc43)c2cc1C	8	5.5%
Cc1ccc(-c2nc3ccc(C)cn3c2CC2CCCCC2)cc1	-24	4.5%
CCOC(=O)C1(C)CCCN(C(=O)c2cc(C#N)cs2)C1 (stereo unspecified)	40	0.8%
COc1ccc(NC(=O)C2(C)CCN2Cc2ccccc2OC(F)F)cc1OC (stereo unspecified)	-12	1.2%

Compound profiles, from the list above. Order of values: CtBP-E1A inh	ClpP mod
`Oc1ccc(C[C@H]2CNC(=S)N2CC2CCCN2C[C@H](Cc2ccccc2)N2C[C@H](Cc3ccc(O)cc3)N(CC3CCCCC3)C2=S)cc1` (stereo partly specified) across the screens: -9	-0.7%
`CC(=O)c1ccc(-c2cnc3c(NC=O)cc(-c4cccc(C(=O)N(C)C)c4)cn23)cc1` across the screens: -16	-17%
`COc1ccc(C(NC(=O)C2CCN(CCOc3ccc(F)cc3)CC2)c2cccs2)cc1` (stereo unspecified) across the screens: -17	-4.5%
`Cc1ccc(-c2nc3ccc(C)cn3c2CC2CCCCC2)cc1` across the screens: -24	4.5%
`CCOC(=O)[C@]12CCC=C1N(Cc1ccco1)C(=O)[C@H](CC(=O)NCc1cccc3ccccc13)C2` across the screens: 0	-0.4%

(further entries)
SMILES	CtBP-E1A inh	ClpP mod
CCC(=O)Nc1ccc2c(c1)OC[C@@H](C)NC[C@@H](C)[C@@H](OC)CN(C)C2=O	3	-2.3%
Nc1ccc(CC(N)c2csc(Nc3nncc4ccccc34)n2)cc1 (stereo unspecified)	-15	-2.1%
CC1CCC(C(C)C)C(NC(=O)c2ccncc2)C1 (stereo unspecified)	8	1.4%
CCc1ccc2c(c1)NC(=O)C2(C)Cc1ccc(C(F)(F)F)nc1 (stereo unspecified)	-11	-3.3%
Cn1c(NCc2ccc3occc3c2)nc2cc(-c3ccc(F)cc3)sc2c1=O	0	-17%
CCOC(=O)C(=O)N(C)c1c(CC)nc2c(OCc3ccccc3OC)cccn12	-3	1.0%
CCOC(=O)N(C)c1c(CC)nc2c(OCCOc3ccccc3)cccn12	8	3.5%
Nc1nc2ccc(Cl)cc2cc1C(=O)NCCCN1CCOCC1	4	4.1%
COC(=O)Cn1c2ccccc2c(=O)n1C(C)C	-21	4.3%
O=C(/C=C/[C@H]1O[C@@H](n2ccc(=O)[nH]c2=O)[C@H](O)[C@@H]1O)NC1CCN(Cc2ccccc2)C1 (stereo partly specified)	-2	0.7%
O=C(NCc1ccco1)C1C(=O)Nc2ccccc2C(=O)N1C1CCCCC1 (stereo unspecified)	3	-12%
COC(=O)C1=CN(c2ccc(Oc3ccccc3)cc2)C(N)=C(C#N)C1c1cccc(F)c1 (stereo unspecified)	6	-21%
Clc1ccc(Cn2ncc3c(N4CCN(c5ccccc5)CC4)ncnc32)cc1	-23	4.2%
CN1OC[C@@H]2CN3C(=O)N(c4cccc5ccccc45)c4ccccc4[C@@H]3C[C@@H]21	0	-4.0%
O=C(C[n+]1ccc2ccccc2c1)c1ccc2ccc3ccccc3c2c1	1	-2.9%
Fc1cccc(Cc2c(-c3ccc(Cl)cc3)nc3ccc(Cl)cn23)c1	0	3.6%
COc1cccc(-c2cc(CNC(=O)[C@H]3O[C@@H](n4cnc5c(N)ncnc54)[C@H](O)[C@@H]3O)no2)c1	6	-4.7%
COCCNc1nc(Nc2ccc(C)cc2C)c2sccc2n1	0	-2.5%
CN(Cc1cn(Cc2cccc(Cl)c2)nn1)C1CN(Cc2cn(Cc3cccc(Cl)c3)nn2)S(=O)(=O)C1 (stereo unspecified)	4	2.7%
COc1ccc(OC)c(NC(=O)Nc2nc(C(N)c3ccccc3Cl)cs2)c1 (stereo unspecified)	-13	0.2%
CC1(C(=O)NC2CCCCC2)CCC(=O)N1C1CCN(Cc2ccccc2)CC1 (stereo unspecified)	1	-1.3%
CCOC(=O)[C@]12CCC=C1N(Cc1cccc3ccccc13)C(=O)[C@H](CC(=O)N1CCN(C(=O)c3ccco3)CC1)C2	-18	-3.5%
CC(C)Oc1cc(F)ccc1-c1cc(C(=O)NCc2cccnc2)[nH]n1	2	-1.5%
CCCCc1c(-c2ccc(Br)cc2)ncn1CCc1ccccc1OC	-11	1.6%
CN(C)c1ccc(-c2csc(C(C)(O)c3ccc(F)c(F)c3)n2)cc1 (stereo unspecified)	u	-11%
The results go on:
SMILES	CtBP-E1A inh	ClpP mod
NC(c1ccccc1)c1csc(NC(=O)Nc2ccccc2Oc2ccccc2)n1 (stereo unspecified)	-15	-0.9%
CO[C@@H]1CN(C)C(=O)c2cc(NC(=O)Nc3cc(F)ccc3F)ccc2OC[C@H](C)N(C(=O)c2cnccn2)C[C@@H]1C	3	0.4%
CC(=O)c1cccc(NC(=O)c2ccc(-c3c(C)noc3C)c3ccoc23)c1	-28	-1.4%
CCCCC(=O)N(C)c1c(CC)nc2c(OCc3cc(Cl)cc(Cl)c3)cccn12	-14	-5.8%
COc1ccccc1CNc1nc(NCc2ccc(C)cc2C)c2sccc2n1	-12	u
COc1cc(OC)cc(-c2c(Sc3ccccc3)c3cc(-c4cnc(N5CCOCC5)nc4)ccc3n2C)c1	6	3.9%
CCCNC(=O)c1cc(C2CCCN(C(=O)c3ccc(NC(C)=O)cc3)C2)on1 (stereo unspecified)	8	0.6%
COc1cc(CNc2ncnc3c2ncn3[C@H]2CN(Cc3ccc4c(c3)OCO4)C[C@@H](CO)O2)cc(OC)c1OC	-6	1.7%
Cc1cc(Br)cn2c(Cc3ccccc3)c(C3CCCCC3)nc12	0	-0.4%
O=C(NCCN1CCC(n2c(=O)[nH]c3ccccc32)CC1)c1ccc(F)cc1Cl	3	0.8%
NC(COCc1ccccc1)c1csc(Nc2ccc(S(N)(=O)=O)cc2)n1 (stereo unspecified)	-8	-7.4%
C#Cc1ccc(NC(=O)C2(C)CCN2C(=O)Cc2ccc(C(C)(C)C)cc2)cc1 (stereo unspecified)	4	-2.0%
CC(C)COC(=O)N1CCCCC1c1cc(C(=O)Nc2ccccc2)no1 (stereo unspecified)	4	-13%
COc1ccc(CN2CCC(C)(Oc3ccc4c(c3)OCO4)C2)c2ccccc12 (stereo unspecified)	u	u
COC(=O)c1ccc2nc(C3CCCCC3)c(Cc3ccccc3)n2c1	-6	-11%
NC(COCc1ccccc1)c1csc(Nc2ccc(C(F)(F)F)cn2)n1 (stereo unspecified)	-22	-5.6%
N#Cc1ccc(-c2nc3ccc(Cl)cn3c2Cc2ccccc2)cc1	7	4.7%
CCc1nc2ccc(C(=O)N(CC)CCN(C)C)cn2c1N(CC)CCOC	10	2.1%
O=S1(=O)C[C@@H](N2CCN(CCO)CC2)[C@H](COCc2ccccc2)N1	-24	-5.5%
